ClpP mod = qHTS Assay for Activators of ClpP | purified B. subtilis ClpP, FRET peptide cleavage, 20 min | Potency, µM (highest dose often 57.5 µM), for the others: top-dose activity change, negative = active | actives 1.9% (n = 340,000) | AID 651965, 2013; active = well fitted falling curve with a large enough effect; inconclusive = small, poorly fitted or top-dose-only effect; inactive = no such curve, though single readings can be large or run the other way; also: potency is read from the fitted curve at half-maximal effect; the source files actives as falling curves though it sought activators and does not explain the sign; nearly all actives have a fitted effect of over 65% in size; many hits overshoot -100%
Target sequence (P80244 whole entry, looked up): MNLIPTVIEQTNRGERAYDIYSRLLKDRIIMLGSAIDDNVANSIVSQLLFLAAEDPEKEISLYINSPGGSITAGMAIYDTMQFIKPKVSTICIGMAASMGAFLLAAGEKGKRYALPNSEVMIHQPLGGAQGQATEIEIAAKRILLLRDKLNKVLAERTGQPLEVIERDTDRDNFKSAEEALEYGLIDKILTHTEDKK
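FRET quenching reversal measured ClpP activation: 10 microg/mL B. subtilis ClpP at pH 8 with the FRET-FV decapeptide, read at 430 nm after 320 nm excitation. The 20-min minus 0-min signal was scaled between DMSO/no-enzyme wells and ADEP (5.8 microM final).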
gsp antag = gsp mutant antagonism | Potency, µM (series often up to 76.9 µM), for inactives: top-dose activity change, negative = inhibition, hits mostly inhibitors | AID 624288 | gsp-mutant cells, cAMP HTRF, 30 min; control for the full effect not named in the record | actives 0.4% (n = 340,000); active = falling curve of any shape with a large fitted effect; inconclusive = falling curve, mostly with a smaller effect; inactive = flat or rising curve; cell line not stated here;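 also: intracellular cAMP measured with PDE inhibitor Ro 20-1724 present during compound exposure; potency is read from the fitted curve at half-maximal effect; % is scaled to controls: 0 for no effect and ±100 for the full control effect; nearly all actives have a fitted effect of over 65% in size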
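Measurement of cellular cAMP by homogeneous time-resolved fluorescence following a 30 min compound exposure at 37C. The PDE inhibitor […] was present throughout; the assay buffer was DPBS with 0.05% BSA and 0.005% Tween 20.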
D2 potentiator = potentiates the human D2 dopamine receptor allosterically. P14416. DiscoveRx D2 beta-arrestin cells, luminescence, 90 min; 100% = 57 uM dopamine signal. potentiation, % (test concentration not listed). actives 0.23% (n = 360,000); active = potentiation of 50% or more; inconclusive = 30% to 50%; inactive = 30% or less;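 also: compound concentration not given in the record; tested on top of an EC20 dose of dopamine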
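D2 cells co-treated with compound plus 50 nM dopamine (EC20) for 90 min at 37 deg C to detect potentiation. Beta-arrestin recruitment was read as enzyme-fragment luminescence after 1 h at ambient temperature. Full response was set by 57 uM dopamine.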
Sfp inh = blocks B. subtilis Sfp PPTase activity | Q9F4F7 | Biochemical Sfp PPTase activity, qHTS | Potency, µM, without a hit: max response, negative = inhibition, usual class: inhibitors | actives 3.5% (n = 310,000) | AID 1490; active = well fitted inhibition curve with a large enough effect; inconclusive = small, poorly fitted or top-dose-only effect, or another doubt; inactive = no such curve, though single readings can be large or run the other way;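 also: the enzyme is Sfp with the accession as filed and its product quenches rhodamine fluorescence; potency is read from the fitted curve at half-maximal effect; 0% = enzyme reaction without inhibitor and -100% = no enzyme wells; top concentration of the series not given in the record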
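After 15 min at room temperature with compound, 15 nM Sfp received 5 uM rhodamine-CoA plus 12.5 uM BHQ-2-ybbR (50 mM Hepes pH 7.6, 10 mM MgCl2). Rate came from the fluorescence difference over 30 min, ex 525/em 598 nm.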
gsp ag = activates gsp, the McCune-Albright syndrome mutation; gsp mutant cells, cAMP HTRF, 30 min; control for the full effect not named in the record; Potency, µM (top dose mostly 76.9 µM), without a hit: at the highest dose activation (cAMP increase), most hits filed as activators; actives 0.13% (n = 340,000); active = well fitted activation curve with a large enough effect; inconclusive = small, poorly fitted or top-dose-only effect, or another doubt; inactive = no such curve, though single readings can be large or run the other way; cell line not stated here;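 also: phosphodiesterase inhibitor Ro 20-1724 added with compounds to block cAMP breakdown; potency is read from the fitted curve at half-maximal effect; nearly all actives have a fitted effect of over 60% in size; about a fifth of the inactives were tested at one dose only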
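Cells stably selected in G418 were plated at 2000/well, grown 16-24 hr, then given compounds in DMSO with the PDE inhibitor […] (300 uM solution added) for 30 min at 37C; cAMP was read by HTRF.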
Menin-MLL FL inh = displaces fluorescein MLL peptide from human menin; AID 1766; 290,000 tested, under 10 active; FP activity change, % at 61.4 µM; Fluorescence polarization, fluorescein-MLL peptide displacement from menin; inconclusive = falling polarisation curve, or a change in total fluorescence; inactive = total fluorescence flat and polarisation flat or rising; no compound was filed as active; the % refers to the polarisation; negative = inhibition;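 also: % of control where 0% means no effect; inhibitors lower the polarisation; unlabelled MLL peptide was the positive control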
TRPV1 potentiator = potentiators of human vanilloid receptor 1 (TRPV1) | actives 0.02% (n = 320,000) | Q8NER1 | TRPV1-expressing cells, Fluo-8 calcium influx, capsaicin EC20 potentiation; host cell line not named in the record; control for the full effect not named in the record | potentiation, % at 8.33 µM; active means potentiation above 80%; inconclusive means 30% to 80%; inactive means below 30%; also: 0% is about no effect
Target sequence (Q8NER1 whole entry, looked up): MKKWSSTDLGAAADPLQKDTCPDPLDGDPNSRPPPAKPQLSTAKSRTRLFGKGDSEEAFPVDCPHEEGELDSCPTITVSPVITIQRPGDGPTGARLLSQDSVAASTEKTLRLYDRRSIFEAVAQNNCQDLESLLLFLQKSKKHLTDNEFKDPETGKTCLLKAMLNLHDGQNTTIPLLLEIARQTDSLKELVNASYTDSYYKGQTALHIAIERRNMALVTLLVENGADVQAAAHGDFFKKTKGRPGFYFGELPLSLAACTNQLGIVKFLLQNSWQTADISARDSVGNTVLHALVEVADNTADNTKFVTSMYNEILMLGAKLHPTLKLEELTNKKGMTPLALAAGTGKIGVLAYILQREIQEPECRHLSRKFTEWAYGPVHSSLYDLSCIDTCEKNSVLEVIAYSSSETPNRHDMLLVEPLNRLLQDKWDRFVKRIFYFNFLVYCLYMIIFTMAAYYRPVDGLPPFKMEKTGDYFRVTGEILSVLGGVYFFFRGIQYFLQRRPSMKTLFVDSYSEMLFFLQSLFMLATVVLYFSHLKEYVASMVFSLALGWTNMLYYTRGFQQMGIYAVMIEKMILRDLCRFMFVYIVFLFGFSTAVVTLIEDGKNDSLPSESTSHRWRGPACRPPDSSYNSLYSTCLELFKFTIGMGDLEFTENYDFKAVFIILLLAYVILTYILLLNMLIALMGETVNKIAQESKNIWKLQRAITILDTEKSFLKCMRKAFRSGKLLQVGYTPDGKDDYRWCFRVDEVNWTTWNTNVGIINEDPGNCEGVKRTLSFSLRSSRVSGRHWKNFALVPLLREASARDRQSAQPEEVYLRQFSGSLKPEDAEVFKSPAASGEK
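Fluo-8 calcium influx in TRPV1-expressing cells, kinetic read (ex 480/em 520 nm). Compound added and read 3 min for agonist activity, followed by capsaicin at EC20 final and 2 min further read for enhancement.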
The depositor's hits bear a star; ? = inconclusive; . = no result given; & = joins results of further samples; [ ] = dose if it differs, or a comment.

SMILES	ClpP mod	gsp antag	D2 potentiator	Sfp inh	gsp ag	Menin-MLL FL inh	TRPV1 potentiator
Cc1cc(-c2ccc(C(C)C)c(S(=O)(=O)NCCN3CCC(C)CC3)c2)on1	-2.4%	2%	-19	4%	7%	1.4	1
CC(=O)c1c(C)[nH]c(C(=O)CSc2nnc(-c3ccccc3)o2)c1C	-1.5%	-31%	9	10%	16%	4.9	?
CCc1cc(C(=O)c2ccccc2)c(N)s1	.	-14%	0	-7%	-12%	5.2	9
O=C(Nc1ccc(Br)cc1)C1CCCN(S(=O)(=O)c2cccnc2)C1 (stereo not given)	1.4%	-18%	-5	13%	-23%	1.8	-14
CN(C)S(=O)(=O)c1ccc(C(=O)Nc2nnc(-c3ccc4c(c3)CCCC4)o2)cc1	-6.7%	-5%	-5	42%[activator]	?	11	9
Cc1c(Cl)cccc1NC(=O)CNC(=O)Cc1c[nH]c2ccccc12	0.4%	6%	-4	.	4%	.	15
O=C(CSc1nc(-c2ccco2)cc(C(F)(F)F)n1)NC1CCCCCCC1	-16%	2%	-7	.	-17%	.	.
COc1ccc(CN2CCNC(=O)C2CC(=O)N(C)CC2CCOCC2)c(F)c1 (stereo not given)	1.1%	11%	9	12%	1%[15.4 µM]	.	19
O=S(=O)(NCc1cc(-c2ccccc2)no1)c1ccccc1Cl	.	-10%	-1	15%	16%	1.9	3
Cn1nc(C(=O)Nc2cccc(C(F)(F)F)c2)c2ccccc2c1=O	-4.9%	-9%	2	11%	0%	5.2	-10
COc1ccc(-n2nc3c(N4CCC(C(=O)N5CCCCCC5)CC4)nnc(C)c3c2C)cc1	?	-9%	-39	5%	1%	13	-4
NC(=O)C(c1ccccc1)C1CCCCC1 (stereo not given)	0.5%	-3%	-23	1%	?	4.9	10
Cc1cc(C(=O)OCC(=O)NCc2ccc(Cl)cc2)c(C)o1	-0.3%	16%	-2	-4%	6%	4.7	-18
Cc1cccc(OCCNc2cc(N3CCN(CCO)CC3)ccc2[N+](=O)[O-])c1	1.3%	19%	-40	-10%	-2%	4.9	1
CCN(CC)CCNC(=O)CN1C(=O)CSc2ccc(S(=O)(=O)N3CCOCC3)cc21	-0.4%&1.0%	.	1	.	-31%[inhibitor]	.	.
O=C(O)CSc1nnc(C2COc3ccccc3O2)n1-c1ccccc1 (stereo not given)	0.7%	-8%	0	-16%	2%	3.9	?
CCCc1cc(=O)oc2cc(OCC(=O)NCCN3CCOCC3)c(Cl)cc12	3.4%	.	-3	.	-10%	.	.
CC[N+](CC)(CC)CC(=O)Nc1ccc(SC(F)F)cc1	-12%	6%	-22	-5%	5%[15.4 µM]	2.1	23
CCN=C1SC(CC(=O)NC(C)c2ccccc2)C(=O)N1CC (stereo not given)	.	5%	1	-1%	-1%	-4.5	-3
Cc1ccc(C(=O)NCC(=O)NCC(=O)OCc2ccc(Cl)cc2)cc1	1.1%	9%	-15	2%	7%	-1.0	-12
O=C(O)CCCCCN1C(=O)C(O)=C(C(=O)/C=C/c2ccccc2)C1c1ccccc1[N+](=O)[O-] (stereo not given)	.	3%	-14	?	16%[15.4 µM]	-5.3	4
CCn1c(=O)cc(OCC(=O)O)c2ccccc21	-14%	2%	8	-3%	-28%	1.5	0
COc1ccc(C2c3ccc(O)cc3Oc3ncn(CCCO)c(=N)c32)cc1OC (stereo not given)	-0.6%	2%	-2	5%	17%	7.4	5
Cc1cc(NC(=O)Cc2c(F)cccc2Cl)no1	-0.4%	-4%	-3	25%	-38%[inhibitor]	-1.4	5
COc1cc(C(=O)NCC(=O)N/N=C(\C)Cc2ccccc2)cc(OC)c1OC	-2.3%	1%	-8	1%	-11%	-1.0	-12

Looked up above:
Result for CC[N+](CC)(CC)CC(=O)Nc1ccc(SC(F)F)cc1 in TRPV1 potentiator: 23
Result for CN(C)S(=O)(=O)c1ccc(C(=O)Nc2nnc(-c3ccc4c(c3)CCCC4)o2)cc1 in Sfp inh: 42%[activator]

Grouped by structure, the entries above with an NH in an aromatic ring.
SMILES	ClpP mod	gsp antag	D2 potentiator	Sfp inh	gsp ag	Menin-MLL FL inh	TRPV1 potentiator
CC(=O)c1c(C)[nH]c(C(=O)CSc2nnc(-c3ccccc3)o2)c1C	-1.5%	-31%	9	10%	16%	4.9	?
Cc1c(Cl)cccc1NC(=O)CNC(=O)Cc1c[nH]c2ccccc12	0.4%	6%	-4	.	4%	.	15

(listing goes on)
SMILES	ClpP mod	gsp antag	D2 potentiator	Sfp inh	gsp ag	Menin-MLL FL inh	TRPV1 potentiator
O=C(NC12CC3CC(CC(C3)C1)C2)c1c(Cl)cccc1Cl	.	7%	-1	20%	13%	0.2	-9
COc1ccc(C2C(C#N)=C(N)OC3=C2C(=O)CCC3)cc1Cn1nc(C)c([N+](=O)[O-])c1C (stereo not given)	-1.7%	6%	-8	3%	12%	1.6	5
CC1S/C(=C(\C#N)C(=O)NCc2ccco2)N(c2ccc(F)cc2)C1=O (stereo not given)	-4.1%	-7%	0	-16%	8%	3.3	-11
COc1ccccc1NCC(=O)NNCC(=O)Nc1ccc(F)c(Cl)c1	.	1%	-5	7%	-16%[15.4 µM]	-2.1	2
CNC(=O)C(=O)Nc1nc(C23CC4CC(CC(C4)C2)C3)cs1	.	-9%	-2	10%	-12%[15.4 µM]	4.8	-16
Nc1nnc(SCC(=O)NC2CCCCC2)s1	4.1%	0%	-6	20%	-38%[inhibitor]	1.5	3
CCOC(=O)N1CCN(S(=O)(=O)c2ccc(C(=O)Nc3sc4c(c3C#N)CC(C)(C)NC4(C)C)cc2)CC1	0.8%	9%	-5	-1%	0%	.	-3
COc1ccc(-n2c(SCC(=O)N3CCC(C(=O)O)CC3)nc3ccccc3c2=O)cc1OC	.	4%	6	6%	?	-4.5	?
COc1ccccc1CNc1cc(C)ccc1C	1.2%	2%	-8	2%	-13%	-1.6	19
O=C(NCCc1ccc(Cl)cc1Cl)c1cncc(Br)c1	0.1%	-10%	-8	8%	-99%[inhibitor]	-1.2	3
O=C(CN1CCN(c2ccccn2)CC1)Nc1ccc(Oc2ccccc2)cc1	-1.9%	-4%	10	-2%	-7%	5.6	.
COCCNC(=O)c1cccc(NS(=O)(=O)c2cccc3cccnc23)c1	-1.0%	8%	-1	-1%	-21%	0.2	6
COc1cc(/C(C)=N\NC(N)=S)cc(OC)c1OC	-1.3%	20%	-14	-18%	3%	3.9	16
CCN(CC(=O)Nc1ccccc1C(F)(F)F)C(=O)c1cc2c(s1)CCCCC2	.	-16%	-16	.	-18%[15.4 µM]	.	-14
CCN(CC(=O)NCc1cccs1)C(=O)c1cccc(S(=O)(=O)Nc2cccc(C)c2)c1	-2.4%	-30%	-1	.	-21%	.	0
COc1ccccc1N(CC(=O)NCCSC(C)(C)C)S(C)(=O)=O	0.8%	1%	-10	6%	-41%[inhibitor]	2.1	-4
COc1ccccc1C(=O)NCCCNc1ccc([N+](=O)[O-])cc1	0.2%	3%	3	6%	-8%[15.4 µM]	-2.2	23
COc1ccc(NC(=O)CSc2nnc(NC(=O)C3CC3)s2)cc1OC	1.2%	10%	-11	3%	0%	.	6
CCOC(=O)c1sc(=NC(=O)c2ccc(Cl)s2)n(C)c1C	-1.7%	-24%	-1	15%	3%[15.4 µM]	-3.5	21
COc1ccc(NC(=O)C2CC(=O)OC2(C)C)cc1 (stereo not given)	-2.2%	6%	-7	7%	-2%	0.1	7
CCN(CC(=O)Nc1ccc(OC)cc1)CC(=O)Nc1cccc(C#N)c1	1.7%	15%	-10	-2%	40%	-4.1	1
O=C(NCc1ccco1)/C(=C/C=C\c1ccccc1)NC(=O)c1ccc(Br)o1	-4.2%	0%	-11	-32%	-2%	10	-3
O=C(CSc1cn[nH]n1)Nc1ccc(Cl)cc1Cl	.	-15%	-3	20%	-22%	-0.2	17
CSc1cccc(NC(=O)CN(C)S(=O)(=O)c2ccccc2)c1	1.1%	-1%	-6	11%	-22%	-1.0	-1
COc1cc(/C=C/C(=O)OCC(=O)c2ccc3c(c2)NC(=O)CO3)ccc1OC(F)F	.	1%	-4	.	-13%[15.4 µM]	.	0

Limited to Menin-MLL FL inh, TRPV1 potentiator and Sfp inh, for some of the entries so far:
mol,Menin-MLL FL inh,TRPV1 potentiator,Sfp inh
COc1ccc(-n2c(SCC(=O)N3CCC(C(=O)O)CC3)nc3ccccc3c2=O)cc1OC,-4.5,?,6%
COc1ccccc1CNc1cc(C)ccc1C,-1.6,19,2%
O=C(NCCc1ccc(Cl)cc1Cl)c1cncc(Br)c1,-1.2,3,8%
O=C(CN1CCN(c2ccccn2)CC1)Nc1ccc(Oc2ccccc2)cc1,5.6,.,-2%
COCCNC(=O)c1cccc(NS(=O)(=O)c2cccc3cccnc23)c1,0.2,6,-1%

Profiles, looked up by structure. Order of values: ClpP mod	gsp antag	D2 potentiator	Sfp inh	gsp ag	Menin-MLL FL inh	TRPV1 potentiator
Shown for `Cc1ccc(C(=O)NCC(=O)NCC(=O)OCc2ccc(Cl)cc2)cc1` = 1.1%	9%	-15	2%	7%	-1.0	-12
Shown for `CCOC(=O)N1CCN(S(=O)(=O)c2ccc(C(=O)Nc3sc4c(c3C#N)CC(C)(C)NC4(C)C)cc2)CC1` = 0.8%	9%	-5	-1%	0%	.	-3
Shown for `O=C(Nc1ccc(Br)cc1)C1CCCN(S(=O)(=O)c2cccnc2)C1` (stereo not given) = 1.4%	-18%	-5	13%	-23%	1.8	-14
Shown for `O=S(=O)(NCc1cc(-c2ccccc2)no1)c1ccccc1Cl` = .	-10%	-1	15%	16%	1.9	3

Not a hit list, and some 5.1% of all compounds hit somewhere here.
